VDR inhibitor: inhibitors of human vitamin D receptor. P11473. VDR-SRC2-3 peptide fluorescence polarization, 2 h. Potency, µM, inactives show max response, negative = inhibition, actives largely listed as inhibitors. hit rate 0.93% among 400,000; active means well fitted inhibition curve with a large enough effect; inconclusive means small, poorly fitted or top-dose-only effect, or another doubt; inactive means no such curve, though single readings can be large or run the other way; further: series mostly up to about 120 µM
Target sequence (P11473 whole entry, looked up): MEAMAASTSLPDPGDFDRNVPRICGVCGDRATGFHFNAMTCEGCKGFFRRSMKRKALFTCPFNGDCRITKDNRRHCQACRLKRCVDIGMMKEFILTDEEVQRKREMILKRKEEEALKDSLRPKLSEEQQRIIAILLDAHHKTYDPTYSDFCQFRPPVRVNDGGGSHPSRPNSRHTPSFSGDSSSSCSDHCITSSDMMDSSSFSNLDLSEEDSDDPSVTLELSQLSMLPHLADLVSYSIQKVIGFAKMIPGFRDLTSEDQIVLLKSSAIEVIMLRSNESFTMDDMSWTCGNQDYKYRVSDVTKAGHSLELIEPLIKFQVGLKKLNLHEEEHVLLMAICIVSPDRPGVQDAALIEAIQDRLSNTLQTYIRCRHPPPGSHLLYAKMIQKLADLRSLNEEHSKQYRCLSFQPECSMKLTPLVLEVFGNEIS
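Fluorescence polarization assay of small-molecule disruption of VDR binding to coregulator peptide SRC2-3. Compounds and controls pin-transferred, then read after 2 h incubation at ambient room temperature.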
Active calls of the source: *; ? = inconclusive; & = joins results of further samples; [ ] = another dose, or the depositor's remark. On the % scale 0 is the no-effect control and ±100 the full control effect; potency means the concentration at half of the fitted maximal effect. Only part of the results is shown. The share of hits here may be higher or lower than overall.

SMILES	VDR inhibitor
Cc1nn(-c2ccccc2)c(N)c1C1(O)C(=O)N(C)c2ccccc21 (configuration not stated)	-9%
CC[C@H](C)[C@H](NC(=O)[C@H](Cc1ccc(O)cc1)NC(=O)[C@H](Cc1cnc[nH]1)NC(=O)[C@H](CCCNC(=N)N)NC(=O)[C@H](CC(C)C)NC(=O)[C@H](C)NC(=O)[C@@H](N)CO)C(=O)N[C@@H](CC(N)=O)C(=O)N[C@@H](CC(C)C)C(=O)N[C@H](C(=O)N[C@H](C(=O)N[C@@H](CCCNC(=N)N)C(=O)N[C@@H](CCC(N)=O)C(=O)N[C@@H](CCCNC(=N)N)C(=O)N[C@@H](Cc1ccc(O)cc1)C(N)=O)[C@@H](C)O)[C@@H](C)CC	-7%
Cn1c(-c2ccc(F)cc2)cnc1NCc1cccc([N+](=O)[O-])c1	1%
Cn1c(=O)cc(OCC(=O)N2CCN(c3cccc(C(F)(F)F)c3)CC2)c2ccccc21	-8%
COc1ccccc1COCC(O)CN1CCN(S(=O)(=O)c2cccc(F)c2)CC1 (configuration not stated)	-16%
Cc1csc2nc(CCNS(=O)(=O)c3ccc4c(c3)OCCO4)cn12	-18%
O=C(NCCn1ccc2ccccc21)c1ccc2c(c1)OCO2	-9%
COc1ccc(C(=O)NCCCCc2ccccc2)cc1	-12%
CCOc1ccc(/C=C/c2nc(C#N)c(N(C)C)o2)cc1	14%
O=c1cc(N2CCCCC2)c(-c2ccccc2)nn1Cc1c(Cl)cccc1Cl	-18%
Cc1ccc(S(=O)(=O)/N=C(/Nc2ccc3[nH]c(=O)[nH]c3c2)c2ccc(F)cc2)cc1	2%
O=C(O)COc1ccc(-c2nccc(-c3ccccn3)n2)cc1	-29%
COc1cc(C(=O)OC(C)CN2CCCC2)cc(OC)c1OC (configuration not stated)	-10%
O=C(NC1CCCCC1)N1CCN(c2ccccc2Cl)CC1	10%
O=C(C1CCCO1)N1CCN(C(=S)Nc2ccccc2C(F)(F)F)CC1 (configuration not stated)	-6%
Cc1ccc(NC(=O)CCCc2nnc3n(C)c(=O)c4sccc4n23)cc1C	-5%
O=[N+]([O-])c1ccc2c(OCc3nnc(-c4ccccc4Br)o3)ncnc2c1	3%
N=C1C(c2nc3ccccc3s2)=C(O)CN1Cc1ccccc1	-24%
CCOc1cc(O)c(-c2[nH]ncc2-c2nc(C)cs2)cc1CC	18%
CC(C)(C)CN1CCNC(=O)C1CC(=O)NC1Cc2ccccc2C1 (configuration not stated)	-12%
Cc1ccc2ncnc(-c3ccccc3)c2c1	-5%
Cc1ccc(S(=O)(=O)N2CCC(C(=O)OC3CCOC3=O)CC2)cc1C (configuration not stated)	-7%
CC(NS(=O)(=O)c1ccc(OCC(=O)N2CCOCC2)cc1)c1ccccc1 (configuration not stated)	3%
CC(CNC(=O)Cn1ccc2cc(S(=O)(=O)N3CCCCC3)ccc21)c1ccccc1 (configuration not stated)	12%
Cc1ccc2ccccc2c1Cn1c(-n2ccnc2)nc2c1c(=O)n(C)c(=O)n2C	4%
Following part.
SMILES	VDR inhibitor
COC(=O)c1ccc(CSc2nc3ccc(Cl)cc3[nH]2)o1	-4%
O=C(CSc1n[nH]c(=O)n1C1CC1)Nc1ccc(Cl)c(Cl)c1	-2%
CCC1CCCCN1CCCNC(=O)c1ccc(CS(=O)(=O)c2ccccc2C)o1 (configuration not stated)	-19%
CCc1cccc(NC(=O)COC(=O)C2CCN(c3ccc(C(F)(F)F)cn3)CC2)c1	-4%
CC(=O)Nc1cc[n+](C(C)C(=O)c2ccccc2)cc1 (configuration not stated)	-2%
N#CCC(=O)N/N=C/c1ccc(Sc2nc3ccccc3s2)o1	36%[activator]
O=C(CN(Cc1ccco1)S(=O)(=O)c1ccccc1)N/N=C/c1ccccc1C(=O)O	-1%
O=C(c1ccccc1NS(=O)(=O)c1ccc(F)cc1)N1CCCCC1	6%
O=C(CN1C(=O)NC2(CCOc3ccccc32)C1=O)NCC(F)(F)F (configuration not stated)	9%
O=C(CC1Sc2ccccc2NC1=O)Nc1cccnc1 (configuration not stated)	-1%
COc1ccc(CN2CCCCC2C(=O)Nc2ccc(OC)c(OC)c2)cc1OC (configuration not stated)	-2%
CCOC(=O)CSc1nc2c(c(=O)[nH]c(=O)n2C)n1CCCc1ccccc1	-7%
FC(F)(F)Oc1ccc(-c2cn3cccnc3n2)cc1	-2%
COc1ccc(-c2noc(C3CCCN(C(=O)c4cccs4)C3)n2)cc1 (configuration not stated)	-1%
COc1ccc(C(=O)NCCC2=CCCCC2)cc1OC	17%
COc1ccc(NC(=O)[C@H](C)NC(N)=O)cc1S(=O)(=O)Nc1cc(C)ccc1Br	-5%
COc1cc(Cl)ccc1OC(=O)c1cn(-c2ccccc2OC)c(=O)c2ccccc12	1%
CCCCCc1nn2cc(-c3ccccc3)nc2s1	-7%
CCNC(=S)N1CCC(C(N)=O)CC1	-23%
CC(C)(C)C(=O)NC1(C(F)(F)F)C(=O)Nc2c1c(=O)[nH]c(=O)n2-c1ccccc1 (configuration not stated)	-7%
CCCN1C(C)C(C(=O)OCC)=CN(Cc2cccc(I)c2)S1(=O)=O (configuration not stated)	4%
Cc1cccc(N2CCN(C(=O)c3ccc4nc(-c5ccco5)c(-c5ccco5)nc4c3)CC2C)c1 (configuration not stated)	2%
C=CCn1c2ccccc2c2nnc(SCC(=O)Nc3cc(C)on3)nc21	-3%
COc1ccc([N+](=O)[O-])cc1NC(=O)C(C)OC(=O)C1c2ccccc2Oc2ccccc21 (configuration not stated)	12%
CC(C)CNC(=O)C(=O)Nc1c2c(nn1-c1ccc(Cl)cc1)CSC2	12%

An excerpt from above in order of the VDR inhibitor value, rising:
Compound | VDR inhibitor
CCNC(=S)N1CCC(C(N)=O)CC1 | -23%
COc1ccc(NC(=O)[C@H](C)NC(N)=O)cc1S(=O)(=O)Nc1cc(C)ccc1Br | -5%
CCc1cccc(NC(=O)COC(=O)C2CCN(c3ccc(C(F)(F)F)cn3)CC2)c1 | -4%
CC(=O)Nc1cc[n+](C(C)C(=O)c2ccccc2)cc1 (configuration not stated) | -2%
Cc1cccc(N2CCN(C(=O)c3ccc4nc(-c5ccco5)c(-c5ccco5)nc4c3)CC2C)c1 (configuration not stated) | 2%
O=C(NC1CCCCC1)N1CCN(c2ccccc2Cl)CC1 | 10%
COc1ccc([N+](=O)[O-])cc1NC(=O)C(C)OC(=O)C1c2ccccc2Oc2ccccc21 (configuration not stated) | 12%

The listing picks up; the 3 compounds before the break are reprinted first.
SMILES	VDR inhibitor
C=CCn1c2ccccc2c2nnc(SCC(=O)Nc3cc(C)on3)nc21	-3%
COc1ccc([N+](=O)[O-])cc1NC(=O)C(C)OC(=O)C1c2ccccc2Oc2ccccc21 (configuration not stated)	12%
CC(C)CNC(=O)C(=O)Nc1c2c(nn1-c1ccc(Cl)cc1)CSC2	12%
CC(=O)Nc1cccc(OCC(=O)NS(=O)(=O)c2ccc(C)cc2)c1	8%
N#Cc1ccc(Oc2nc(Nc3ccc(F)cc3)nc(N3CCCC3)n2)cc1	-16%
CCCC(=O)Oc1c(Sc2ccc(Cl)cc2)c(C)nn1-c1ccccc1	50µM*
CC(=O)n1c(-c2ccccc2)c(CO)c2ccccc21	-18%
CC/C(=N\Nc1ccc([N+](=O)[O-])cc1)c1ccccc1	?
Cc1csc(N(C)C(=O)CSc2nnc(COc3cccc4ccccc34)o2)n1	-4%
CCOC(=O)N/N=C\c1ccc([N+](=O)[O-])s1	-27%
O/C(=C\c1nc2ccccc2nc1/C=C(\O)c1ccccc1)c1ccccc1	79µM*
CCC(C(=O)NC(C)CCc1ccccc1)n1nc(C)n2c(cc3occc32)c1=O (configuration not stated)	-4%
CCN(CC)CCNC(=O)c1[nH]c2ccc(OCc3ccccc3)cc2c1C	-5%
CCC(=O)N1Cc2ccccc2-c2ccccc2C1=O	-2%
COc1ccc2c(c1)c(/C=C/c1cc[n+](C)cc1)cn2C	-3%
Cc1c(O)c(CN2CCCC2)cc2c3c(c(=O)oc12)CCC3	4%
CCSc1nnc(SCC(=O)c2c(N)n(C)c(=O)n(C)c2=O)s1	2%
CN(Cc1ccccc1)S(=O)(=O)c1ccc(OCC(=O)N2CCC(C(N)=O)CC2)cc1	-21%
CCc1ccc(NC(=O)Cn2nc(SC)c(S(=O)(=O)c3ccc(OC)cc3)c2N)cc1	8%
Cc1cccc(OCC(=O)O/N=C(\N)c2ccncc2)c1	-4%
COc1ccccc1N1CCN(S(=O)(=O)CCNC(=O)c2cc(=O)c3ccccc3o2)CC1	-10%&13%
S=C(NCCc1cnc[nH]1)NC1CCCC1	1%
Cc1ccc(C(=O)Nc2cc(-c3cn4cccnc4n3)ccc2C)cc1C	12%
COc1ccc(-c2cc3ccccc3oc2=O)cc1NC(=O)c1ccc([N+](=O)[O-])o1	2%
COC(=O)[C@H](CCSC)NC(=O)Nc1ccc(OC)c(Cl)c1	-10%
O=C1COCCOCCOCC(=O)NCCN1	0%
COc1ccc(NC(=O)CN(C)CC(=O)NC(=O)NC2CCCCC2)cc1	-11%
COc1ccc(-c2nn(-c3ccccc3F)cc2CNCCn2nc(C)cc2C)cc1	10%
The listing continues.
SMILES	VDR inhibitor
CN(C(=O)c1cccc(NC(=O)Cc2cccc(NC(=O)C3CCN(S(=O)(=O)c4cccc([N+](=O)[O-])c4)CC3)c2)c1)C1CC1	-24%
Cc1cccc(NC(=O)c2cc(C)nc3ccccc23)c1	-3%
Cc1cc(NC(=O)CCC(=O)N(c2cccnc2)C(C(=O)NC2CCCC2)c2ccccc2F)no1 (configuration not stated)	-18%
CCOc1ccc(OCC)c(S(=O)(=O)N2CCN(c3cccc(C)c3C)CC2)c1	-11%
Cc1cccc(C)c1NC(=O)NC1=CCCN1C	8%
O=C(Nc1ccncc1)C1CCCN(S(=O)(=O)c2cccc3cccnc23)C1 (configuration not stated)	-28%
O=C(OCC(=O)N1CCN(C(=O)c2ccco2)CC1)c1ccccc1OCc1ccccc1	-1%
Cc1cc(C)n(-c2nnc(C)n2/N=C/c2ccccc2OCc2ccccc2Cl)n1	1%
Cc1ccc(OCC(=O)Nc2ccon2)c([N+](=O)[O-])c1	-23%
COc1cc(C(C)=O)ccc1OCC(O)Cn1nc(C)c(Br)c1C (configuration not stated)	2%
COc1cccc(CNC(=O)CCCN2C(=O)C(c3ccccc3)Oc3cccnc32)c1OC (configuration not stated)	-12%
O=C(CN1C(=O)NC2(CCCc3ccccc32)C1=O)Nc1cccc(S(=O)(=O)N2CCCCC2)c1 (configuration not stated)	11%
Cc1cnc(CNc2nc(-c3ccoc3)nc3ccccc23)cn1	?
Cc1ccc(S(=O)(=O)c2nnn3c2nc(Nc2ccc(C(C)C)cc2)c2sccc23)cc1C	0%
O=C(N/N=C/c1c[nH]c2ccccc12)c1ccc2c(c1)OCCO2	5%
CCCCN1Cc2c(nc3cc(-c4ccccc4)[nH]n3c2=O)C1=O	9%
CCN(C(=O)COC(=O)c1ccc(Cl)c(S(=O)(=O)N2CCCCC2)c1)C1CCS(=O)(=O)C1 (configuration not stated)	-4%
CN(NC(=O)Nc1ccc(Cl)cc1)c1c(Cl)c(Cl)nn1C	3%
O=C(O)CN1C(=O)C2C3C=CC(C2C1=O)C1C(=O)N(CC(=O)O)C(=O)C31 (configuration not stated)	-4%
C=CCSc1nc2c(c(=N)n1CC=C)C1CCCC1S2 (configuration not stated)	-3%
CCCc1cc(NCCCCO)n2c(nc3ccccc32)c1C#N	-2%
COc1ccc(OCc2cc(C(=O)NCc3cccc(C)n3)no2)c(Cl)c1	-8%
COc1ccc(C(=O)Nc2ccccc2NC(=O)c2ccco2)c(OC)c1	-7%
O=C(O)CCCCN1C(=O)/C(=C\c2ccc(OCc3ccccc3)c(OCc3ccccc3)c2)SC1=S	8%
C=C[C@H](C)[C@](C)(O)c1ccccc1	3%
Additional records follow.
SMILES	VDR inhibitor
COc1ccc(OCC(=O)NCCNC(=O)c2cccnc2)cc1	-2%
NC(=O)[C@H](Cc1cc2ccccc2s1)NC(=O)[C@@H]1CC2(CC(c3cccc(NC(=O)[C@@H]4CCC(=O)N4)c3)=NO2)CN1C(=O)c1ccccc1 (some centres not stated)	3%
COc1cccc(C(c2sc3nc(C)nn3c2O)N2CCN(C(=O)c3ccco3)CC2)c1 (configuration not stated)	-12%
O=C1c2c(Cl)c(Cl)c(Cl)c(Cl)c2C(=O)N1c1nccs1	-12%
COc1ccc(CCNS(=O)(=O)c2cn(C)cn2)cc1OC	-8%
Cc1ccc(NC(=O)CSc2ccccc2NC(=O)c2cccc(Cl)c2)cc1Cl	-26%
COc1cc2nc(CC(C)C)n(NC(=O)c3ccccc3)c(=O)c2cc1OC	-8%
CCOc1ccc2c(c1)OC(c1ccc(C)cc1)(C(F)(F)F)NC2=O (configuration not stated)	-16%
Cc1nc(C(N)=O)c(N)n1CCc1ccccc1	45µM*
CCc1ccc(NC(=O)c2ccc(NS(=O)(=O)c3c(C)noc3C)cc2)cc1	-7%
Cc1ccc(S(=O)(=O)CCC(=O)Oc2ccc(-c3nnco3)cc2)cc1	7%
CCOC(=O)c1c(S(=O)(=O)NCCCc2ccco2)c(C)n(C)c1C	-4%
CCOC(=O)COc1c(OC)cc(Cl)cc1C1NC(=O)NC(C)=C1C(C)=O (configuration not stated)	2%
CC(/C=N/NC(=O)c1sc(N)nc1C)=C\c1ccccc1	10%
Cn1c(=O)c2c(nc(NC3CCCCC3)n2Cc2ccccc2)n(C)c1=O	?

Reprinted at random: 2 compounds from above
SMILES	VDR inhibitor
CCOc1ccc2c(c1)OC(c1ccc(C)cc1)(C(F)(F)F)NC2=O (configuration not stated)	-16%
Cc1ccc(S(=O)(=O)CCC(=O)Oc2ccc(-c3nnco3)cc2)cc1	7%

Screening data (PubChem BioAssay)
